D2 agonist: human D2 receptor agonism in beta-arrestin assay; 360,000 tested, 0.084% active; P14416; AID 624465; activation, % (test concentration not listed); DiscoveRx PathHunter D2 beta-arrestin, luminescence, 90 min; 100% = 57 uM dopamine signal; in the data active = activation above about 40%; inconclusive = about 15% to 40%; inactive = below about 15%; note: compound concentration not given in the record; the text of the record calls up to 30% inactive
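DiscoveRx PathHunter D2 beta-arrestin cells (2,100/well) attached overnight, then compound-stimulated 90 min at 37 C in HBSS/10 mM HEPES/0.1% Tween-20 buffer; beta-galactosidase complementation read by luminescence after 1 h at ambient temperature. Dopamine 57 uM final (EC100) as control.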
PINK1 expr mod: PINK1 expression modulation | PINK1 immunofluorescence, high-content cytometry, 24 h | Potency, µM (highest dose often 76.6 µM), for the others: top-dose activation (PINK1 increase), usual class: activators | 410,000 tested, 0.2% active | AID 624263; active = well fitted activation curve with a large enough effect; inconclusive = small, poorly fitted or top-dose-only effect; inactive = flat fitted curve, though single readings scatter; cell line not stated here;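 note: potency is the fitted concentration of half-maximal effect; % of control where 0% means no effect; nearly all actives have a fitted effect of over 65% in size; a mitochondrial uncoupler was the plate control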
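Decision-based qHTS: stable cells, 24 h exposure to five compound concentrations, CCCP as control. Fixed cells stained for PINK1 plus nuclear, mitochondrial and cell markers, cytometer read.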
D2 potentiator: positive allosteric modulators of human D2 dopamine receptor; potentiation, % (test concentration not listed); 360,000 tested, 0.23% active; P14416; DiscoveRx D2 beta-arrestin cells, luminescence, 90 min; 100% = 57 uM dopamine signal; active = potentiation of 50% or more; inconclusive = 30% to 50%; inactive = 30% or less;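 note: compound concentration not given in the record; tested on top of an EC20 dose of dopamine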
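PathHunter D2 cells, attached overnight at 37 deg C, received compound in DMSO plus dopamine at EC20 (50 nM final) for 90 min at 37 deg C. Beta-arrestin recruitment was read as luminescence after 1 h with detection reagent at ambient temperature.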
TRPV1 PAM: potentiators of human vanilloid receptor 1 (TRPV1) | TRPV1-expressing cells, Fluo-8 calcium influx, capsaicin EC20 potentiation; host cell line not named in the record; control for the full effect not named in the record | 320,000 tested, 0.02% active | Q8NER1 | AID 540277 | potentiation, % at 8.33 µM; active means potentiation above 80%; inconclusive means 30% to 80%; inactive means below 30%; note: 0% is about no effect
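TRPV1-expressing cells were cultured overnight at 35.5C and loaded with Fluo-8 calcium dye for 40 to 90 min at room temperature. After a 10 s baseline, compound was added and calcium influx was read kinetically for 3 min (ex 480/em 520 nm).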
CtBP-E1A blk: blocks the CtBP interaction with E1A. AID 651724. 340,000 tested, 0.49% active. activity change, % (concentration not given with the values). AlphaScreen GST-E1A/His-CtBP binding, 1536-well; active compounds read low; control for the full effect not named in the record; in the data active means activity change below about -65%; inconclusive means about -30% to -65%; inactive means above about -30%; note: % is set by controls: 0 for no effect and ±100 for the full control effect
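Steps: dispense buffer (Tris pH 8.0, NaCl 300 mM, TCEP 1 mM, BSA, Tween 20); add 5X protein mix (GST-E1A, His-CtBP, 125 nM each); pin 23 nL compound; 2 h at 37 °C, dark; add 5X beads (50 ug/mL); 1 h; read.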
Six1-Eya2 inh: Six1/Eya2 interaction inhibition | AlphaScreen GST-Six1/His-Eya2 binding, biochemical; active compounds read low; control for the full effect not named in the record | activity change, % (concentration not given with the values) | 360,000 tested, 0.56% active | AID 651725; in the data active = activity change below about -65%; inconclusive = about -30% to -65%; inactive = above about -30%; note: % is set by controls: 0 for no effect and ±100 for the full control effect
Target sequence (O00167 whole entry, looked up): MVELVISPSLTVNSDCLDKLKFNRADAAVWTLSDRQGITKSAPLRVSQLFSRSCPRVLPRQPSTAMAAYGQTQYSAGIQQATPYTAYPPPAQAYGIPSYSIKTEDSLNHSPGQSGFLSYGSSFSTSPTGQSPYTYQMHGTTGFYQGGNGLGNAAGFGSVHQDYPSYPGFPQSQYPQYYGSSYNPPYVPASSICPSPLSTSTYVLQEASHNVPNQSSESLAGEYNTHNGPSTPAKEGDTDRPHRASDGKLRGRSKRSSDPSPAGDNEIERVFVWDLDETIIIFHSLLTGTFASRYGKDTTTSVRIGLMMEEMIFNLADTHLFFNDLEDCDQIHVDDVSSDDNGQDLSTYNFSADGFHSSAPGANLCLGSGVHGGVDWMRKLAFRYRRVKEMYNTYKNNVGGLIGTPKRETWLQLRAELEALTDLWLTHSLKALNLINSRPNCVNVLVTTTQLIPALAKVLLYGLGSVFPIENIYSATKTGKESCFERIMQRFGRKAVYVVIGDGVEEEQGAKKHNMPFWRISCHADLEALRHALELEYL
Target sequence (Q15475 whole entry, looked up): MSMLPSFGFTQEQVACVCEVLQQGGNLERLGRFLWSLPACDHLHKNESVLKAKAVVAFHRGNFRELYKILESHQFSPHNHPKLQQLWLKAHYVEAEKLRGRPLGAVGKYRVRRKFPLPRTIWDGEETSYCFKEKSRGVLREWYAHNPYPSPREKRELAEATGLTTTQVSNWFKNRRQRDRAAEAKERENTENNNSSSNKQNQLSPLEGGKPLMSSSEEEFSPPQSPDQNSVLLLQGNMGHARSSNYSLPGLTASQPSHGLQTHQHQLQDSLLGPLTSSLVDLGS
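Six1/Eya2 binding was read as AlphaScreen signal after compounds were pinned into GST-Six1 plus His-tagged Eya2 (5X stock 250/500 nM) in pH 8.0 Tris/NaCl/TCEP buffer, beads added, then incubated 1 h, 37 C, dark.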
Sfp PPTase inh: blocks B. subtilis Sfp PPTase activity; Q9F4F7; Biochemical Sfp PPTase activity, qHTS; Potency, µM, inactives show max response, negative = inhibition, usual class: inhibitors; 310,000 tested, 3.5% active; AID 1490; active = well fitted inhibition curve with a large enough effect; inconclusive = small, poorly fitted or top-dose-only effect, or another doubt; inactive = no such curve, though single readings can be large or run the other way;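 note: the enzyme is Sfp with the accession as filed and its product quenches rhodamine fluorescence; potency is the fitted concentration of half-maximal effect; 0% = enzyme reaction without inhibitor and -100% = no enzyme wells; top concentration of the series not given in the record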
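Compounds were incubated with enzyme (final 15 nM) for 15 min at room temperature before substrate addition started the reaction. Fluorescence at 525 nm excitation, 598 nm emission was recorded immediately and after 30 minutes.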
Active calls of the source: *; ? = inconclusive; / = no result given; [ ] = remark or other dose. An unsorted share of the library. Share with any hit: about 3.7%.

nr	structure	D2 agonist	PINK1 expr mod	D2 potentiator	TRPV1 PAM	CtBP-E1A blk	Six1-Eya2 inh	Sfp PPTase inh
1	O=C(Cc1cccs1)N1CCCC(c2nc3c(nnn3Cc3ccccc3Cl)c(=O)[nH]2)C1 (stereo unspecified)	-0.9	1.1%[38.3 µM]	-2	-26	-3	-2	-18%
2	COCCOCC(O)CN1CCN(c2ccc(C)cc2)CC1 (stereo unspecified)	-3.5	-0.8%	-11	?	-4	4	79µM*
3	COc1ccc(S(=O)(=O)N(C)CC(=O)N2CCCC2)cc1Cl	0.0	-2.9%	1	-5	-1	2	10%
4	COC(=O)c1ccc(NS(=O)(=O)c2ccc(SC)cc2)cc1	-1.4	/	-18	-14	11	2	2%
5	CN(Cc1ccc2c(c1)CCCN2C)C(=O)[C@H]1O[C@@H](n2ccc(=O)[nH]c2=O)[C@H](O)[C@@H]1O	-3.4	-0.5%	-6	/	1	-1	/
6	CCOc1cccc(C2C(C#N)=C(N)Oc3cc(C)[nH]c(=O)c32)c1OCC (stereo unspecified)	-5.7	0.7%	-12	24	/	1	8%
7	COc1cccc(NC(=O)Nc2ccc3c(c2)nc(C)n3C)c1	-5.3	-0.5%	-14	-56	-4	8	5%
8	COc1ccc(C)cc1S(=O)(=O)N(C)CC(=O)N1CCC(C)CC1	0.2	2.7%[38.3 µM]	1	-7	10	3	8%

Next section.
nr	structure	D2 agonist	PINK1 expr mod	D2 potentiator	TRPV1 PAM	CtBP-E1A blk	Six1-Eya2 inh	Sfp PPTase inh
9	COc1ccccc1C1(CC(=O)O)CCOC(C(C)C)C1 (stereo unspecified)	3.1	-0.6%	9	1	-1	14	7%
10	CNC(=O)OCc1nc(SC2CCCCO2)n(C)c1COC(=O)NC (stereo unspecified)	-1.7	-0.4%	-4	/	-15	10	/
11	COc1ccccc1NC(=O)Nc1sccc1-c1nc2ccccc2s1	-4.8	-0.5%	-5	-5	/	2	?
12	Cc1cc(C(F)(F)F)nn1Cc1ccc(C(=O)NCc2ccco2)o1	0.3	?	-10	15	1	-2	0.89µM*
13	COc1ccc(/C=C2\CCCC3C2=NN(C(=O)c2scnc2C)C3c2ccc(OC)c(OC)c2)cc1OC (stereo unspecified)	-0.1	?	-6	-8	?	?	?
14	O=C(CSc1nnc(NC2CC2)s1)Nc1ccc(N2CCOCC2)cc1	-6.7	-1.2%	-4	-12	-6	4	/
15	Cc1ccc([N+](=O)[O-])cc1N=Cc1ccc(Br)s1	-1.9	15%[38.3 µM]	-5	2	0	0	3%
16	CC1CCN(CCCNC(=O)c2ccc(CS(=O)(=O)Cc3ccccc3F)o2)CC1	-1.3	0.2%	-1	?	-4	1	12%

Shown as a hit in Sfp PPTase inh (from the list above):
#	Molecule	D2 agonist	PINK1 expr mod	D2 potentiator	CtBP-E1A blk	Six1-Eya2 inh	Sfp PPTase inh
2	COCCOCC(O)CN1CCN(c2ccc(C)cc2)CC1 (stereo unspecified)	-3.5	-0.8%	-11	-4	4	79µM*
12	Cc1cc(C(F)(F)F)nn1Cc1ccc(C(=O)NCc2ccco2)o1	0.3	?	-10	1	-2	0.89µM*

Additional structures
nr	structure	D2 agonist	PINK1 expr mod	D2 potentiator	TRPV1 PAM	CtBP-E1A blk	Six1-Eya2 inh	Sfp PPTase inh
17	Cc1ccc(CCNS(=O)(=O)c2cc3c(cc2C)n(C)c(=O)c(=O)n3C)cc1	0.7	0.4%	-1	-2	-4	2	6%
18	COc1cc2c(cc1OC)C(=O)C(c1ccc3c(c1)OCO3)CC2 (stereo unspecified)	-3.4	0.4%	-3	/	2	1	/
19	C=CCn1c(CSCc2ccc(Cl)cc2)nnc1SCC(=O)NCc1ccccc1	-1.1	4.2%	-13	19	1	-3	6%
20	CC(C)CC1NC(=O)N(CC(=O)Nc2ccc(-c3ccccc3)cc2)C1=O (stereo unspecified)	-2.8	5.8%	-4	1	-17	-1	/
21	Cc1cc(Nc2cccc(F)c2)n2ncnc2n1	-2.9	-1.8%	-3	3	1	2	24%
22	COc1ccc(C(CNC(=O)c2ccco2)N2CCCC2)cc1 (stereo unspecified)	-3.5	-1.0%	-17	6	/	5	/
23	CC(NC(=O)CCn1ccc2cc(S(=O)(=O)N3CCCC3)ccc21)c1ccccc1 (stereo unspecified)	-8.6	-0.2%	-11	-2	1	-2	13%
24	Cc1ccc2sc(-c3ccc(NC(=O)c4cc(-n5cnnc5)ccc4Cl)cc3)nc2c1	2.3	?	-3	-12	3	-4	-8%

The list goes on:
nr	structure	D2 agonist	PINK1 expr mod	D2 potentiator	TRPV1 PAM	CtBP-E1A blk	Six1-Eya2 inh	Sfp PPTase inh
25	COc1ccc(CC(=O)OC(C)C(=O)NC2CCCCC2C)cc1 (stereo unspecified)	-0.4	3.1%	1	0	6	2	/
26	CCOc1cc(C(=O)N(C)Cc2cc3cc(OC)ccc3[nH]c2=O)cc(OCC)c1OCC	-1.9	0.3%	9	14	-6	12	8%
27	CCO[C@@H]1OC(C(=O)N2CCCCCCC2)=C[C@H](c2csc3ccccc23)[C@H]1CCCO	-3.2	0.8%	-13	-7	0	2	-5%
28	CCS(=O)(=O)N1CCCC(C(=O)NCc2cccnc2)C1 (stereo unspecified)	-7.0	-1.3%	-7	-1	0	3	9%
29	O=C(CSc1nnc(CNC(=O)c2ccc(F)cc2)o1)NCCc1ccccc1	-3.4	0.3%	-10	-4	-11	2	-3%
30	COc1ccc(C2=CC3=C(Br)C(=O)C(C)(OC(=O)c4cccs4)C(=O)C3=CO2)cc1 (stereo unspecified)	-1.6	-0.1%	-4	/	-6	-10	-1%
31	O=C(/C=C/c1ccc([N+](=O)[O-])cc1)NCCc1ccc(F)cc1	12	1.0%	1	4	/	-8	-15%
32	CC(=O)n1cc(/C=N/NC(=O)c2ccccc2O)c2ccccc21	-7.9	-0.2%	-2	6	-15	-10	5%

Continuation:
nr	structure	D2 agonist	PINK1 expr mod	D2 potentiator	TRPV1 PAM	CtBP-E1A blk	Six1-Eya2 inh	Sfp PPTase inh
33	O=C(NCCc1cccs1)C1CC(c2cccc(F)c2)=NO1 (stereo unspecified)	1.2	2.2%	-6	-6	-3	4	-6%
34	CCN(CC(=O)Nc1ccc(NC(C)=O)cc1)C(=O)c1oc2ccccc2c1C	-4.9	1.1%	23	-4	-21	12	/
35	CC(C)N(CC(=O)Nc1ccc(Cl)cc1C(F)(F)F)C(=O)CCl	-0.7	-1.9%	8	-1	2	-1	14%
36	O=C1CC(C(=O)N(c2cccc(F)c2)C(C(=O)NC2CCCC2)c2ccccn2)CS1 (stereo unspecified)	-1.0	8.2%[38.3 µM]	-10	-13	8	1	-5%
37	O=C(O)C1CCN(S(=O)(=O)c2ccc(Oc3ccccc3)cc2)CC1	-0.7	1.8%	11	-31	5	-4	6%
38	CCOc1ccc(NS(=O)(=O)c2cc(OCC(N)=O)c(C)cc2Cl)cc1	-3.1	4.0%	-14	0	2	13	14%
39	CCc1nnc(NC(=O)c2c(O)c3c([nH]c2=O)CCCC3)s1	-4.4	4.0%	-12	4	1	1	-5%
40	CC(C)Nc1ncnc2c1ncn2[C@H]1CN(Cc2cccs2)C[C@@H](CO)O1	-3.9	0.2%	-1	/	10	3	/

Next section.
nr	structure	D2 agonist	PINK1 expr mod	D2 potentiator	TRPV1 PAM	CtBP-E1A blk	Six1-Eya2 inh	Sfp PPTase inh
41	Cc1cc(=O)oc2cc(O[C@@H]3O[C@H](CO)[C@H](O)[C@H](O)[C@H]3O)ccc12	-3.3	0.4%	-8	13	-25	10	4%
42	Cc1cc(C)c(NC(=O)c2ccc(CNS(=O)(=O)c3cc(C(F)(F)F)ccc3Cl)cc2)c(C)c1	0.9	4.4%	4	6	-2	-7	11%
43	Cc1ccc(S(=O)(=O)NCC(=O)N(CC(=O)NCc2ccco2)Cc2ccco2)cc1	0.8	0.1%	-9	-2	0	-6	-6%
44	Cc1cc(NCCN2CCOCC2)n2c(nc3ccccc32)c1C#N	-1.6	4.6%	7	-3	-1	-3	13%
45	CC(=O)Nc1ccc(NC(=O)c2ccccc2-n2cnnn2)cc1	-3.4	-2.6%	-1	-2	11	0	/
46	c1ccc2c(c1)COC(CN1CCCCC1)OC2	-5.7	0.9%	-6	-4	/	-6	5%
47	Cc1cccc(OCCn2ccnc2)c1C	2.0	-0.5%	-7	-9	-13	3	6%
48	Cc1ccc(F)cc1NC(=O)N1CCN(c2ccnc3cc(Cl)ccc23)CC1	0.5	-1.1%	-3	-17	/	-3	7%

(listing goes on)
nr	structure	D2 agonist	PINK1 expr mod	D2 potentiator	TRPV1 PAM	CtBP-E1A blk	Six1-Eya2 inh	Sfp PPTase inh
49	CCC1CCc2sc(C(=O)NNC(=S)NCC3CCCO3)cc2C1 (stereo unspecified)	-6.0	1.0%	-28	-10	/	-7	/
50	CC1CN(C(=O)c2ccccc2)C(=Nc2cccc(S(=O)(=O)N(C)C)c2)S1 (stereo unspecified)	-7.3	6.3%	-9	-6	11	-3	?
51	CCOC(=O)CNC(=O)CSc1nc(Cc2ccccc2)nc2ccccc12	-3.6	-1.2%	-2	-2	0	12	-4%
52	C=C(C)[C@@H]1CC[C@]2(C(=O)O)CC[C@]3(C)[C@H](CC[C@@H]4[C@@]5(C)CC[C@H](O)C(C)(C)[C@@H]5CC[C@]43C)[C@@H]12	0.6	-0.9%	3	21	1	6	13%
53	CCN(CC)CCn1c2c(c(SCC(=O)NCc3ccccc3)nc1=O)CCC2	-0.6	-2.2%	-7	6	-15	10	/
54	COc1ccccc1NC(=O)N(C)C[C@@H]1OCc2ccccc2-c2c(n(C)c3ccccc23)C(=O)N([C@H](C)CO)C[C@@H]1C	-9.9	-1.3%	-8	/	3	-9	/
55	CCn1cc(S(=O)(=O)NCc2ccc3c(c2)OCO3)cn1	-1.3	1.6%	-8	-9	18	7	10%
56	O=c1[nH]c(=O)n(C2CC(O)C(CO)O2)cc1I (stereo unspecified)	-7.5	-4.3%	-15	/	-1	1	/
57	CCc1cc2c(=O)c(-c3nc4ccccc4n3C)coc2c(CN2CCN(C)CC2)c1O	-2.0	-0.5%	-12	-34	1	-3	10%

Source: PubChem
